Compound activity (PubChem BioAssay)
LT uptake inh = blocks cellular internalization of anthrax lethal toxin; Cells, anthrax lethal toxin internalization, FRET ratio (460/530); Potency, µM (titrated, usually from 40 µM), for the others: at the highest dose activity change, negative = inhibition, actives largely listed as inhibitors; AID 912; actives 0.67% (n = 70,000); active = well fitted falling ratio curve with the 530 nm signal flat; inconclusive = other ratio curves, or a change in one channel alone; inactive = flat curves in the ratio and both channels; the % refers to the ratio; further: on the % scale 0 is the no-effect control and ±100 the full control effect; nearly all actives have a fitted effect of over 50% in size; tested in ME-180 cells; beta-lactamase reporter
Prx2 Sm inh = blocks S. mansoni peroxiredoxin 2 enzymatic activity; S. mansoni Prx2 activity coupled to TGR/GSH (TGR is thioredoxin glutathione reductase), NADPH fluorescence loss, qHTS; some inactives read as strong as hits; Potency, µM; actives 0.07% (n = 65,000); AID 448; active means full or partial inhibition curve with a strong effect at the top dose; inconclusive means weaker partial or single-point curve; inactive means no accepted curve; further: series up to 57 µM; many of its hits are not listed in these tables
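Activity is read as the drop in NADPH fluorescence (365/450 nm), recorded every 30 sec for 8 min after H2O2 addition. Prx2 is coupled to TGR-driven NADPH oxidation through glutathione, in phosphate buffer pH 7.4.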
The depositor's hits bear a star; ? = inconclusive; / = not tested or not shown; & = joins results of further samples; [ ] = dose if it differs, or a comment. Potency means the concentration at half of the fitted maximal effect.

#	canonical_smiles	Prx2 Sm inh	LT uptake inh
1	COC(=O)c1cc(NC(=O)C2COc3ccccc3O2)cc(C(=O)OC)c1 (centres undefined)	>57	-24%
2	CCN1C(=O)CSC1=NC1C2CC3CC(C2)CC1C3 (centres undefined)	/	?
3	O=S1(=O)CC(NCc2ccccc2)C(Nc2ccccc2)C1 (centres undefined)	>57	-17%
4	COc1ccc(O[C@H]2C=C[C@@H](c3ccccc3)O[C@H]2COC(=O)CC/C(C)=N/OCC[C@@H]2C=C[C@H](OC(C)=O)[C@H](COC(C)=O)O2)cc1	/	-2%[8 µM]
5	c1ccc2nc(C3=NCCN3)ccc2c1	>57&>57	-27%&-10%
6	CCN1CCN(C(=O)CN(Cc2ccccc2)S(C)(=O)=O)CC1	>57	0%
7	CCN1CCN(Cc2c(O)ccc3c(=O)c(-c4ccc(OC)c(OC)c4)c(C(F)(F)F)oc23)CC1	/	-14%
8	COc1cccc(NC(=O)CSc2nnc(-c3cccs3)n2C)c1	>57	-6%
9	Oc1c(C(c2cccs2)N2CCOCC2)sc2ncnn12 (centres undefined)	>57	13%
10	CCOC(=O)C1CCN(Cc2cn[nH]c2-c2ccc(C)cc2)CC1	>57	0%
11	Cc1ccc(CNC(=O)CCCn2c(=O)c3ccccc3n(CC(=O)NCc3ccco3)c2=O)cc1	>57	-10%
12	O=c1c(-c2ccc(Cl)cc2)nc2cnc(Nc3ccccc3)nc2n1C1CC1	>11	?

Screen by screen, quoted from above:
LT uptake inh, compounds 1–4: -24%, ?, -17%, -2%[8 µM]

Next part
#	canonical_smiles	Prx2 Sm inh	LT uptake inh
13	COC(=O)C1[C@H]2C(=O)N(Cc3cccs3)C[C@]23C=C[C@H]1O3 (some centres undefined)	>57	28%
14	Cn1c(N2CCC(C(N)=O)CC2)nc2c1c(=O)n(Cc1ccc(Br)cc1)c(=O)n2C	>57	/
15	O=C1CC(C2CCCO2)C(=O)N1c1cccc(Cl)c1 (centres undefined)	>57	-2%
16	CCN(C(=O)COC(=O)C(Cc1ccccc1)N1C(=O)c2ccccc2C1=O)C1CCS(=O)(=O)C1 (centres undefined)	>57	4%
17	c1ccc(Cn2nnc3cnccc32)cc1	>57	1%
18	CCN(c1ccc(C(O)(C(=O)OC)C(F)(F)F)cc1)S(=O)(=O)c1ccccc1 (centres undefined)	>57	-13%
19	Brc1ccc(-c2nc3ccccc3s2)s1	>57	-12%
20	Cc1cccc(N2CCN(C(=O)C3CCCN(S(=O)(=O)c4cnc[nH]4)C3)CC2C)c1 (centres undefined)	>57	-7%
21	COc1ccc2[nH]c(=O)c(CN(Cc3ccco3)Cc3nnnn3Cc3ccccc3)cc2c1	>57	-5%
22	COC(=O)[C@@]1(Cc2ccc(OC)cc2)[C@H]2c3cc(C(=O)N4CCCC4)n(Cc4cc(F)cc5c4OCOC5)c3C[C@H]2CN1C(=O)c1ccccc1	>57	?
23	Nc1ccc(-c2ccc(N)c(Cl)c2)cc1Cl	/	?
24	O=S1(=O)c2cccc3cccc(c23)N1Cc1ccc(-c2nnco2)cc1	>57	-6%
25	COC(=O)c1ccc(CSc2ncnc3sc(C)c(C)c23)o1	>57	?
26	CN(C)S(=O)(=O)c1ccc2c(c1)nc(CCC(=O)NCC1CCCCC1)n2C	>57	6%
27	O=S1(=O)[C@H]([C@H]2CC3c4ccccc4C2c2ccccc23)[C@@H](N2CCCCC2)[C@@H]1c1ccccc1	>57	?
28	Cc1ccc([N+](=O)[O-])cc1C	/	0%
29	CCOC(=O)C1CC=C(Cl)CC1C(=O)Nc1nccs1 (centres undefined)	>57	2%
30	Cc1cccc(N2C(=O)CC(N(O)c3ccccc3)C2=O)c1 (centres undefined)	>57	?
31	CSc1ncc(C(=O)O)n1-c1ccc(F)cc1	>57	-11%
32	COc1ccc(C2=NOC(C(=O)NC3CCCCC3)C2)cc1OC (centres undefined)	>57	1%
33	CN1CCC(n2[nH]c(-c3ccccc3)c(Cc3ccccc3)c2=O)CC1	>57	?
34	O=C(O)CCN1C(=O)C(=C2CCCCCC2)SC1=S	>57	9%
35	COc1ccc(-c2nc3ccccc3c(=O)n2CCCN2CCOCC2)cc1	>57	-3%
36	Cc1ccc(-c2nnc(N3CCOCC3)c3ccccc23)cc1S(=O)(=O)NCC1CCCO1 (centres undefined)	/	-13%
37	COc1cc(NC(=O)c2ccco2)c(OC)cc1NC(=O)CCC(=O)Nc1cc(C)ccc1C	>57	-17%
38	O=C(CN1C(=O)C2C3C=CC(C3)C2C1=O)N1CC(=O)N(CCc2ccccc2)C(=O)C1 (centres undefined)	>57	-10%
39	O=C(O)C1C2C=CC(C2)C1C(=O)NCCc1ccncc1 (centres undefined)	>57	2%
40	COc1ccc(-n2c(SCC(=O)Nc3ccc4c(c3)OCO4)nc3ccccc3c2=O)cc1	>57	?
41	COc1ccc(C(=O)N2CCC[C@@]3(CCN(Cc4cc(C(F)(F)F)cc(C(F)(F)F)c4)C3)C2)cc1	>57	18%
42	CCc1nnc(NC(=O)CSc2nnc(Cc3ccccc3)n2Cc2ccccc2)s1	>57	-13%
43	Cc1ccc(Cn2ccc(NC(=O)c3cc(-c4cccc(Cl)c4)on3)n2)cc1	>57	-17%
44	O=c1c2cnn(-c3ccccc3)c2ncn1Cc1ccccc1	>57	0%
45	N#Cc1nc(COc2ccc(F)cc2)oc1N1CCN(Cc2ccccc2)CC1	>57	?
46	CCOC(=O)CNC(=O)CSc1nnc(Cn2c(=O)sc3ccccc32)n1C	>57	9%
47	COc1ccc(OC)c(NC(=O)CSc2nnc(CNc3ccc(F)cc3)o2)c1	>57	?
48	CCCC(C)C(=O)Nc1ccc(Cl)cn1 (centres undefined)	>57	5%
49	Cc1cc(C)nc(-n2nc(C)cc2NC(=O)c2ccc3c(c2)OCO3)n1	>57	-4%
50	COc1ccccc1C(c1nnnn1Cc1ccccc1)N1CCN(c2nc3ccccc3s2)CC1 (centres undefined)	>57	?
51	CC(O)c1cccc(NC2=CC(=O)CC(C)(C)C2)c1 (centres undefined)	/	1%
52	O=C(O)c1cccc(Cl)c1	/	1%
53	O=C(CSc1ncn[nH]1)c1ccc2c(c1)OCCO2	>57	2%
54	Cc1ccc(OCC(=O)n2cnnc2N)c(C)c1	>57	?
55	C=Cn1nc(C)c2ccccc2c1=O	>57	14%
56	CC(=O)Nc1ccc(NC(=O)CN2CCCC(C)C2)c(Cl)c1 (centres undefined)	>57	-7%
57	O=C(O)C(Cc1ccccc1)n1cnnn1 (centres undefined)	>57	?
58	CCCc1nc2ccccc2c(C(=O)OCc2nnc(-c3cc(OC)c(OC)c(OC)c3)o2)c1CC	>57	-4%
59	O=C(Nc1ccccc1)c1ccccc1OCC(O)CN1C(=O)c2ccccc2S1(=O)=O (centres undefined)	>57	-21%
60	CCNc1nc(N2CCOCC2)nc(N(c2ccccc2)c2ccccc2)n1	>57	-20%
61	NCCNC[C@H](O)CO	>57	-4%[8 µM]
62	COc1ccc(-c2ccc(OC)cc2C(=O)O)cc1	>57	-12%
63	C=CCn1cnc2c(c1=O)c1nc3ccccc3nc1n2-c1ccccc1	>57	-6%
64	CC1(C)Cn2c(nnc2-c2cccc(O)c2)S1	>57	-11%
65	CCS(=O)(=O)N1CCN(S(=O)(=O)c2ccc(F)cc2)CC1	>57	16%
66	COCCCNC(=O)Cn1nnc(-c2ccc(NC(=O)c3ccccc3OC)cc2)n1	>57	-2%
67	O=C1Nc2ccccc2SC(c2ccccc2)C1O (centres undefined)	>57	-17%
68	Cc1ccc(S(=O)(=O)N2CCOCC2)cc1C(=O)NCc1ccc(F)cc1	>57	2%
69	O=C(CSc1ncccn1)c1ccccc1Br	>57	?
70	CCn1c(/C=N/n2cnnc2)nc2ccccc21	/	-9%
71	Cn1c(SCC(=O)c2ccc(F)cc2)nc2cccnc21	>57	4%
72	CCOC(=O)C1=C(C)NC(=O)CC1c1cc2c(cc1Br)OCO2 (centres undefined)	>57	15%

Remaining list, next part:
#	canonical_smiles	Prx2 Sm inh	LT uptake inh
73	Cc1ccc2cc(C(c3nnnn3C3CCCC3)N(Cc3cccnc3)Cc3ccco3)c(=O)[nH]c2c1 (centres undefined)	>57	8%
74	COc1ccc(S(=O)(=O)N2CCCN(CC(=O)Nc3ccc(OC)c(Cl)c3)CC2)cc1	>57	1%
75	COC(=O)c1ccc(Cn2cc(Cl)cn2)cc1	>57	-1%
76	CCC(c1nnnn1Cc1ccc2c(c1)OCO2)N1CCN(c2ccccc2)CC1 (centres undefined)	>57	-26%
77	O=C(Nc1ccc2nc(-c3ccco3)[nH]c2c1)c1ccco1	>57	2%
78	COC(=O)[C@@H]1C[C@H]1[C@@H](NC(=O)c1ccccc1)c1ccccc1	>57	2%
79	CC(C)CC(=O)Nc1ccccc1N1CCOCC1	>57	2%
80	O=C(CCN1CCc2ccccc2C1)Nc1ccccc1	/	-17%
81	CCc1c(C(=O)Nc2ncn(Cc3cccc(C)c3)n2)csc1C	>57	6%
82	Cc1cc(NC(=O)CSc2nc(C(C)C)nc3c2c(=O)n(C)c(=O)n3C)no1	>57	0%
83	Nc1nc2n(n1)C(c1ccc(Cl)cc1)CC(c1ccc(F)cc1)N2 (centres undefined)	>57	-8%
84	O=C(O)/C(=C\c1ccccc1)c1ccccc1	>57	-4%[8 µM]
85	CC(=O)N1CCC[C@@]2(CCN(C(=O)Nc3cccc(C#N)c3)C2)C1	>57	-3%
86	Cc1ccccc1C(=O)Nc1ccc(S(=O)(=O)N2CCN(C)CC2)cc1	/	-3%
87	O=C(c1cc2nc(-c3ccccc3)cc(C(F)(F)F)n2n1)N1CCCC1	>57	-3%
88	COc1ccc(S(=O)(=O)Cc2ccc(C(=O)NCc3cccnc3)o2)cc1	>57	-9%
89	Oc1ccc(-c2nnc(-c3ccc(O)cc3)nn2)cc1	>57	-5%
90	Cc1cc(N2CCOCC2)nc2ccc(NC(=O)CCC(=O)N3CCC(C)CC3)cc12	>57	-5%
91	Cc1cc(NC(=O)Cc2ccccc2)no1	>57	-4%
92	CCOC(=O)c1c(N)sn(-c2ccccc2C)c1=S	>57	-25%
93	O=C(CN1C(=O)CSC1=O)Nc1ccc(N2CCOCC2)cc1	>57	5%
94	O=S(=O)(c1cccs1)N1CCN(c2ccccn2)CC1	>57	-9%
95	Cc1cccc(-n2c(O)c(C=NCCCN3CCOCC3)c(=O)[nH]c2=O)c1C	>57	/
96	CCOC(=O)CS(=O)(=O)c1nc(-c2ccc(F)cc2)cc(C(F)(F)F)n1	>57	?

Four records picked at random from those above:
#	canonical_smiles	Prx2 Sm inh	LT uptake inh
89	Oc1ccc(-c2nnc(-c3ccc(O)cc3)nn2)cc1	>57	-5%
41	COc1ccc(C(=O)N2CCC[C@@]3(CCN(Cc4cc(C(F)(F)F)cc(C(F)(F)F)c4)C3)C2)cc1	>57	18%
40	COc1ccc(-n2c(SCC(=O)Nc3ccc4c(c3)OCO4)nc3ccccc3c2=O)cc1	>57	?
28	Cc1ccc([N+](=O)[O-])cc1C	/	0%

Remaining list, next part
#	canonical_smiles	Prx2 Sm inh	LT uptake inh
97	Cn1c(-c2cccc(Br)c2)cnc1NCc1cccnc1	>57	-10%
98	O=C(Nc1cccc(F)c1)c1ccc(S(=O)(=O)N2CCCC2)cc1	>57	-16%
99	O=C(C1CCCCC1)N1CC(=O)N2CCc3ccccc3[C@@H]2C1	>57&>57	-4%[3.58 µM]
100	Cc1ccc(S(=O)(=O)NC(C)(C)CSc2nnc(N)s2)cc1	>57	3%
101	COc1ccc(NC(=O)Cn2cccc2)cc1Cl	>57	8%
102	CCCc1cc(C(=O)NCCc2ccccc2)no1	>57	-9%
103	Cc1ccc(C)c(N2CCN(C(=O)C3CCN(c4nnc(N5CCCC5=O)s4)CC3)CC2)c1	>57	-11%
104	O=C1C(=O)N(Cc2ccc(Cl)c(Cl)c2)c2ccccc21	>57	?
105	COc1ccc(N2CCN(C(=O)c3ccc(C)cc3Cl)CC2)cc1	>57	?
106	CC[C@H]1CC[C@H]2[C@@H]3CC=C4C[C@H](OC(C)=O)[C@@H](N)C[C@@]4(C)[C@H]3CC[C@@]12C	>57	?
107	COC(=O)C(C(=O)N1CCN(C)CC1)C1CCCCCC1 (centres undefined)	>57	-4%
108	CN1CCN(c2ncc3nc(-c4cccs4)c(=O)n(Cc4ccc(F)cc4)c3n2)CC1	>57	?

Molecules listed so far containing a cyano group (2):
#	canonical_smiles	Prx2 Sm inh	LT uptake inh
45	N#Cc1nc(COc2ccc(F)cc2)oc1N1CCN(Cc2ccccc2)CC1	>57	?
85	CC(=O)N1CCC[C@@]2(CCN(C(=O)Nc3cccc(C#N)c3)C2)C1	>57	-3%

Next section.
#	canonical_smiles	Prx2 Sm inh	LT uptake inh
109	CCOc1ccc2[nH]cc(C(=O)O)c(=O)c2c1	>57	-5%
110	CN(C)Cc1ccccc1-c1cncnc1NCc1cccs1	>57	-8%
111	O=C1SC(c2ccccc2)=N/C1=C/c1ccco1	>57	-2%
112	CN(C)c1ncnc2ccc(-c3cccc(C#N)c3)cc12	>57	-3%
113	O=C(c1ccc(F)cc1F)N(Cc1ccccn1)Cc1ccco1	>57	-1%
114	O=C(CN(C1CCCCC1)S(=O)(=O)c1ccc(Cl)cc1)NCc1cccnc1	/	-26%
115	CCOc1cc(-c2c(C)c(C)nc(N)c2C#N)ccc1O	>57	?

An excerpt; count on the stated rates, not on these rows.
